ClpP mod: qHTS Assay for Activators of ClpP | ATP-dependent Clp protease proteolytic subunit (Bacillus subtilis (strain 168)), P80244 | purified B. subtilis ClpP, FRET peptide cleavage, 20 min | Potency, µM (doses to about 57.5 µM), for the others: at the highest dose activity change, negative = active | 1.9% of 340,000 active | AID 651965, 2013; active = well fitted falling curve with a large enough effect; inconclusive = small, poorly fitted or top-dose-only effect; inactive = no such curve, though single readings can be large or run the other way; note: the source files actives as falling curves though it sought activators and does not explain the sign; nearly all actives have a fitted effect of over 65% in size; many hits overshoot -100%
Target sequence (P80244 whole entry, looked up): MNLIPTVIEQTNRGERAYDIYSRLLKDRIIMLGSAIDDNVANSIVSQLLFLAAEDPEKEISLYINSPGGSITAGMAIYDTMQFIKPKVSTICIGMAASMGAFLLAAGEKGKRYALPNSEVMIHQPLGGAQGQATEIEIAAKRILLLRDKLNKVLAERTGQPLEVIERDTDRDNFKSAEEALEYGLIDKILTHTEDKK
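Buffer: 100 mM Tris/HCl pH8, 100 mM KCl, 0.05% low protease BSA, 2.5% glycerol, 0.01% Tween-20. ClpP 10 microg/mL final; 20 min RT; delta FRET normalized to ADEP and DMSO controls.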
An asterisk follows results filed as active; ? = inconclusive. Potency is the fitted concentration of half-maximal effect. These rows are one share of the data; rates above refer to the full screens.

O=C(CSc1n[nH]c(-c2ccccc2)n1)N1CCCCC1
  ClpP mod = 1.3%
COC(=O)c1ccc(C(=O)OC)c(NC(=O)c2cnn3c(C(F)F)cc(-c4ccc(C)cc4)nc23)c1
  ClpP mod = -7.1%
CC1=C(C(=O)N2CCCCCC2)CC(CC(=O)NC2CCCC2)C(=O)N1CCC1=CCCCC1 (centres undefined)
  ClpP mod = 0.9%
CCc1ccc(NC(=O)Cn2ccn(-c3ccc(C)c(C)c3)c(=O)c2=O)cc1
  ClpP mod = 4.3%
COc1ccccc1NC(=O)Cn1c(=O)n(-c2cccc(C(C)=O)c2)c(=O)c2c3c(sc21)CN(C(C)=O)CC3
  ClpP mod = 0.1%
CCOc1ccccc1N(C)C(=O)c1cc(S(=O)(=O)NCc2ccc(C)cc2)ccc1F
  ClpP mod = 1.9%
CCOC(=O)c1cccc(NC(=O)CSc2ncc3c(n2)-c2ccccc2N(C)S3(=O)=O)c1
  ClpP mod = -6.0%
COc1ccc(CNC(=O)C(=O)NCC(c2cccnc2)N2CCN(c3ccccc3F)CC2)cc1 (centres undefined)
  ClpP mod = 0.5%
CC(NC(=O)c1ccc2c(c1)N(Cc1ccc(Cl)cc1)C(=O)c1ccccc1S2(=O)=O)c1ccccc1 (centres undefined)
  ClpP mod = -4.7%
COc1ccc(Cn2c(C(=O)O)c(CNCc3ccc(C)o3)c3ccc(C)cc32)cc1
  ClpP mod = -12%
CCC(C(=O)N1CCN(c2ccc(OC)cc2)CC1)n1nc(C)n2c(cc3occc32)c1=O (centres undefined)
  ClpP mod = -11%
Fc1ccc(-n2ncc3c(N4CCCCCC4)ncnc32)cc1
  ClpP mod = -5.3%
Cc1ccccc1OCc1nnc(SCc2cc(=O)c3ccccc3[nH]2)n1C
  ClpP mod = -2.4%
CC(C)C[C@@H]1CC2=C(C(=O)OC(C)(C)O2)[C@H](c2ccc(Cl)cc2)O1
  ClpP mod = 1.8%
O=C(NCc1cccc(Br)c1)c1cnn(-c2ccc(F)cc2)c1-n1cccc1
  ClpP mod = -1.0%
O=S(=O)(c1ccc(OC(F)(F)F)cc1)N1CCN(c2nc(-c3ccccc3)nc3ccccc23)CC1
  ClpP mod = -21%
COc1ccccc1CNc1nc(-c2ccco2)nn1S(=O)(=O)c1ccc(C)cc1
  ClpP mod = -0.7%
COCCCNC(=O)c1c(NC(=O)c2nc(S(C)(=O)=O)ncc2Cl)sc2c1CCCC2
  ClpP mod = -12%
Cc1ccc(C2=Nc3ccccc3N(CC(=O)Nc3cccc(F)c3)C(=O)C2)cc1C
  ClpP mod = 0.7%
O=C1CC(c2ccc(Cl)cc2)N=C(NC(=O)c2ccccc2)N1 (centres undefined)
  ClpP mod = -2.5%
COc1ccc(C2C(C(=O)Nc3ccccc3)=C(C)Nc3nc(-c4ccccc4)nn32)cc1OC (centres undefined)
  ClpP mod = -2.9%
O=C(NCCSCc1c(F)cccc1Cl)C1CCN(S(=O)(=O)Cc2ccccc2)CC1
  ClpP mod = -1.3%
CC(C)(C)c1ccc(Oc2nc3ccccn3c(=O)c2/C=C(\C#N)c2nc3ccccc3s2)cc1
  ClpP mod = 4.1%
Cc1cccc2cc(CN(Cc3ccccc3)Cc3nnnn3Cc3ccccc3)c(=O)[nH]c12
  ClpP mod = -25%
CCC(C)NC(=O)c1ccc2c(c1)N(Cc1ccccc1F)C(=O)c1ccccc1S2=O (centres undefined)
  ClpP mod = -0.5%

4 structures from above, arranged by molar mass, lowest first.
O=C1CC(c2ccc(Cl)cc2)N=C(NC(=O)c2ccccc2)N1 (centres undefined)
  ClpP mod = -2.5%
COc1ccccc1CNc1nc(-c2ccco2)nn1S(=O)(=O)c1ccc(C)cc1
  ClpP mod = -0.7%
Cc1cccc2cc(CN(Cc3ccccc3)Cc3nnnn3Cc3ccccc3)c(=O)[nH]c12
  ClpP mod = -25%
CC1=C(C(=O)N2CCCCCC2)CC(CC(=O)NC2CCCC2)C(=O)N1CCC1=CCCCC1 (centres undefined)
  ClpP mod = 0.9%

Continued:
CCCc1nnc(NC(=O)Cc2coc3ccc(C(C)C)cc23)s1
  ClpP mod = -0.3%
COc1ccc(NC(=O)c2cc(-c3ccc4c(c3)OCO4)on2)c(OC)c1
  ClpP mod = -12%
CCSc1nn(CC(=O)Nc2ccc(C(=O)OC)cc2)c(N)c1S(=O)(=O)c1ccc(C)cc1
  ClpP mod = -3.3%
O=C(NC1CCCC1)C1c2ccccc2OCC(=O)N1CCCN1CCOCC1 (centres undefined)
  ClpP mod = -4.0%
Cc1ccc2nc(-c3ccc(NC(=O)COc4c(C)ccc(C)c4C)cc3)sc2c1
  ClpP mod = 4.0%
O=C(Cc1ccc(NC(=O)N2CCCCc3ccccc32)cc1)NCc1ccccc1Br
  ClpP mod = 1.4%
COc1ccc(C(C(=O)NC(C)(C)C)n2c(-c3ccc(=O)[nH]c3)nc3ccccc32)cc1 (centres undefined)
  ClpP mod = -13%
Cc1ccc(-c2onc(C)c2C)cc1S(=O)(=O)NCc1cccs1
  ClpP mod = -1.3%
Cc1nn(C)c2c1c(C(F)(F)F)cc(=O)n2CC(=O)Nc1ccc(F)cc1F
  ClpP mod = -22%
COC(=O)C[C@H]1C=C[C@@H](NC(=O)Nc2c(C)noc2C)[C@@H](CO)O1
  ClpP mod = 0.2%
CCOC(=O)C1=C(c2ccccc2)Nc2ncnn2C1c1ccc(Cl)cc1 (centres undefined)
  ClpP mod = -7.7%
Cc1cccc(C)c1NC(=O)Nc1csc2c1CCCC2
  ClpP mod = 0.9%
CCn1cc(C(=O)OCC(=O)Nc2ccc(F)cc2F)c(=O)c2ccc(C)nc21
  ClpP mod = -1.6%
COc1ccc(NC(=O)Nc2nnc(C)s2)cc1
  ClpP mod = 0.8%
Cc1ccc2nc(CSc3nnc(NC(=O)CC(C)C)s3)cc(=O)n2c1
  ClpP mod = -1.0%
CCOCCc1nn2c(=O)cc(COC(=O)c3ccccc3NC(=O)c3ccccc3F)nc2s1
  ClpP mod = -1.8%
CCC(CO)Nc1ncnc2c1cnn2-c1ccc(C)cc1 (centres undefined)
  ClpP mod = 28µM*
CCCN(CCC)C(=O)c1nn(C)c2c1CSc1ccccc1-2
  ClpP mod = 2.1%
COc1ccc(-c2noc(-c3ccccc3NC(=O)c3cc(OC)c(OC)c(OC)c3)n2)cc1
  ClpP mod = 16%
COc1ccc(NC(=O)c2c(NC(=O)COc3ccccc3)sc3c2CCCCC3)cc1
  ClpP mod = -3.0%
CC(=O)c1cccc(NC(=O)Cc2noc3ccccc23)c1
  ClpP mod = 0.0%
Cc1ccc(-n2ncc3c(NC4CCCCCC4)ncnc32)cc1Cl
  ClpP mod = 32µM*
CCOC(=O)C(Cc1ccccc1)NC(=O)Cn1nnc(-c2ccc(C)cc2)n1 (centres undefined)
  ClpP mod = -0.3%
CCOc1ccccc1N1C(=O)c2ccccc2N/C1=C\N1CCN(C(=O)c2ccco2)CC1
  ClpP mod = 2.5%
COc1ccc(C(=O)Nc2nnc(SCc3cc(=O)c4cc(C)cc(C)c4[nH]3)s2)cc1
  ClpP mod = -4.5%

CCCCN1C(=O)C(O)(c2c[nH]c3ccccc23)c2cc(Br)ccc21 (centres undefined)
  ClpP mod = -1.5%
O=C1CCC[C@@H]2C=C[C@H](c3ccc(Br)cc3)[C@H]3CCN1[C@@H]32
  ClpP mod = -2.0%
Cc1ccc2oc(=O)n(CCCOc3ccccc3Cl)c2c1
  ClpP mod = 0.8%
Cc1ccc(CN2CCC(CNC(=O)c3cnn(-c4ccccc4Cl)c3C3CCN(C(=O)OC(C)(C)C)CC3)CC2)cc1
  ClpP mod = -1.7%
CCC(c1nnnn1-c1ccc2c(c1)OCCO2)N1CCN(c2ccc(C(F)(F)F)cn2)CC1 (centres undefined)
  ClpP mod = -0.9%
COc1ccc(-c2noc(CC(=O)Nc3ccc(C)c(F)c3)n2)cc1
  ClpP mod = -0.6%
CCN(CCCNC(=O)c1cc(Nc2ccccc2OC)nc2ccccc12)c1cccc(C)c1
  ClpP mod = ?
COc1ccc(C2NC(c3ccc4c(c3)OCO4)=CC(c3ccccc3O)N2)cc1OC (centres undefined)
  ClpP mod = -7.8%
O=C(Cc1ccccc1)Nc1sc2c(c1C(=O)Nc1ccc(Br)cc1)CCC2
  ClpP mod = 0.4%
CCOc1ccc(-c2ccc(NS(=O)(=O)c3cc(C)ccc3OC)cc2)nn1
  ClpP mod = 4.0%
Cc1nc2cccnc2n1-c1cccc(C(=O)NCCc2ccc(Cl)cc2)c1
  ClpP mod = -2.5%
CC(=O)Nc1ccc(NC(=O)c2oc3c(c2C)-c2nn(Cc4ccccc4Cl)cc2CC3)cc1
  ClpP mod = 20µM*
COc1ccc([C@H]2CC(=O)C[C@@H](CCn3cc(-c4ccccn4)nn3)O2)cc1
  ClpP mod = -11%
Cc1ccc(Cn2ccn(CC(=O)Nc3c(C)cc(C)cc3C)c(=O)c2=O)cc1
  ClpP mod = -2.8%
CCOc1ccccc1NC(=O)Cn1c(=O)n(-c2ccc(F)cc2)c(=O)c2c3c(sc21)CN(C(C)=O)CC3
  ClpP mod = -0.4%
O=C(Cn1ncn2c(cc3sccc32)c1=O)NCCc1ccccc1
  ClpP mod = -1.2%
COc1ccc(C(=O)N(Cc2ccc(C(C)C)cc2)C2CCS(=O)(=O)C2)cc1 (centres undefined)
  ClpP mod = -0.3%
O=C(NCc1ccco1)c1ccc2c(c1)N(Cc1ccc(F)cc1)C(=O)c1ccccc1S2(=O)=O
  ClpP mod = 0.2%
Cc1cccc(N2CCN(C(=O)Cn3ncc4c([nH]c5ccccc54)c3=O)CC2C)c1 (centres undefined)
  ClpP mod = -5.8%
CCOC(=O)C1CCN(C(=O)CSc2n[nH]c(-c3ccccc3Cl)n2)CC1
  ClpP mod = 1.8%
CCOCCCNC(=O)c1ccc2c(c1)NC(=O)C(CS(=O)(=O)Cc1ccc(F)cc1Cl)N2 (centres undefined)
  ClpP mod = 7.1µM*
COc1cccc(CSc2nc3cc(C(=O)NC4CCCC4)ccc3c(=O)n2Cc2ccccc2)c1
  ClpP mod = -7.5%
COC(=O)c1c(C)nn(-c2ccc(F)cc2)c1-n1cccc1
  ClpP mod = -0.1%
COc1ccc(NC(=O)Cn2c(=O)n(Cc3nc(-c4ccccc4)no3)c(=O)c3ccccc32)cc1Cl
  ClpP mod = -8.9%
COc1ccc(CN2[C@@H](CC(=O)O)c3ccc(/C=C/C(=O)O)cc3S2(=O)=O)cc1
  ClpP mod = -0.1%

CCOC(=O)c1c(-c2ccc(OC)c(OC)c2)csc1NC(=O)c1ccc(C)cc1
  ClpP mod = -2.2%
CCOC(=O)c1ccccc1NC(=O)c1sc2ncn(CC)c(=O)c2c1C
  ClpP mod = -26%
COc1ccc(CCNC(=O)C(=O)NCC(c2cccnc2)N2CCN(c3ccccc3)CC2)cc1 (centres undefined)
  ClpP mod = -4.8%
COC(=O)c1ccc(Cl)cc1NC(=O)Nc1nnc(N2CCCC2)s1
  ClpP mod = -17%
COc1ccc(C(O)C(O)(C(=O)OC(C)C)c2ccc(C)cc2)cc1 (centres undefined)
  ClpP mod = -0.4%
COc1ccc(-c2cn3cccnc3n2)cc1NC(=O)COc1ccccc1
  ClpP mod = 4.8%
CCN(CC)S(=O)(=O)c1ccc(NC(=O)[C@H](CCSC)N2Cc3ccccc3C2=O)cc1
  ClpP mod = -28%
Cc1cc(-n2c(SCC(=O)NCc3ccccc3)nc3ccsc3c2=O)ccc1Cl
  ClpP mod = -2.2%
CC(C)CN(CCCNC(=O)c1cc(-c2ccc(Br)s2)nc2ccccc12)CC(C)C
  ClpP mod = -12%
Cc1ccc(CNC(=O)CSc2nc3ccsc3c(=O)n2Cc2ccccc2F)cc1
  ClpP mod = 17%
COc1ccc(-c2cn(CC[C@@H]3CC[C@H](NC(=O)Cc4ccccn4)[C@@H](CO)O3)nn2)cc1
  ClpP mod = -6.5%
Cc1ccc(CN(Cc2ccco2)C(=O)COc2ccc(C(C)C)cc2)cc1
  ClpP mod = 0.4%
COc1ccc(-c2nc3sc(CCNC(=O)C(=O)Nc4ccccc4C#N)c(C)n3n2)cc1
  ClpP mod = -3.7%
COc1ccc2c(c1)CC(NC(=O)Nc1c(C)cc(C)cc1C)CO2 (centres undefined)
  ClpP mod = -0.3%
COc1ccc(NC(=O)c2cnc(N3CCCCC3)c3ccccc23)cc1Cl
  ClpP mod = ?
CN(C)CCCCCCNc1cc(N2CCN(C)CC2)ncn1
  ClpP mod = 0.2%
O=C(c1ccc2c(c1)N(Cc1ccccc1F)C(=O)c1ccccc1S2(=O)=O)N1CCCCCC1
  ClpP mod = -1.2%
CCOc1ccc(NC(=O)[C@H]2O[C@@H]3OC(C)(C)O[C@@H]3[C@H]3OC(C)(C)O[C@H]32)cc1
  ClpP mod = -1.1%
COc1ccc(Cc2c(-c3ccc(C#N)cc3)nc3c4ccccc4ccn23)c(C)c1
  ClpP mod = -9.1%
COc1ccc(Oc2nc3c(c(=O)n(Cc4ccccc4Cl)c(=O)n3C)n2C)cc1
  ClpP mod = -2.0%
CCCCSc1ncnc2c1c(-c1ccccc1)cn2-c1cccc(F)c1
  ClpP mod = -5.0%
COc1ccc(CNC(=O)C2CCN(c3nnc(-n4cccc4CNc4ccc(C)cc4)s3)CC2)c(OC)c1
  ClpP mod = -0.8%
Cc1ccccc1-n1c(=O)c2ccccc2n(Cc2ccc(F)cc2)c1=O
  ClpP mod = -15%
Cc1ccc(OC(=O)CSc2nnc(-c3cccs3)o2)cc1
  ClpP mod = 94%
O=C(NCCc1csc(-c2cccnc2)n1)c1ccc(F)c(F)c1
  ClpP mod = -1.4%

CCCCNC(=O)C1C(c2ccc(C(F)(F)F)cc2)=Nc2ccccc2N1C(=O)c1cccc2ccccc12 (centres undefined)
  ClpP mod = ?
COc1ccc(C2C(=O)N(C3CCCCCC3)CC(=O)N2CCc2ccccc2)cc1 (centres undefined)
  ClpP mod = -1.9%
Cc1cc(C(=O)Nc2ccc(C(C)C)cc2)c2c(C)nn(-c3ccccc3)c2n1
  ClpP mod = 20%
COc1ccc(Cl)cc1S(=O)(=O)N1CCN(CC(=O)Nc2ccccc2C(F)(F)F)CC1
  ClpP mod = -0.3%
